Assay outcomes: PubChem BioAssay, National Center for Advancing Translational Sciences (NCATS)
RE007 growth inh = less growth of the S. pombe RE007 Vpr strain; S. pombe RE007 Vpr strain, BacTiter-Glo ATP luminescence, 24 h; control for the full effect not named in the record; Potency, µM (top dose mostly 92.2 µM), for the others: top-dose activity change, negative = less growth; 0.21% of 360,000 active; AID 651644; active = well fitted falling curve with a large enough effect; inconclusive = small, poorly fitted or top-dose-only effect; inactive = no such curve, though single readings can be large or run the other way;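 note: % is set by controls: 0 for no effect and ±100 for the full control effect; nearly all actives have a fitted effect of over 50% in size; the assay follows cell death caused by Vpr and the record does not say whether a fall means rescue or toxicity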
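Fission yeast RE007 carrying one integrated HIV-1 vpr copy, seeded at OD 0.01 in PMG+AL medium with 23 nL pinned compound. Grown 24 h at 30 degrees; viability read by BacTiter-Glo luminescence after 5 min.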
Lassa entry inh = inhibitors of Lassa virus binding or cell entry | Lassa virus pseudotype entry inhibition, cell reporter; control for the full effect not named in the record | Potency, µM (series often up to 37.9 µM), for the others: at the top dose activity change, negative = inhibition, usual class: inhibitors | 1.2% of 300,000 active | AID 540256; active means well fitted inhibition curve with a large enough effect; inconclusive means small, poorly fitted or top-dose-only effect, or effect the other way; inactive means flat fitted curve, though single readings scatter; tested in HEK293 cells; note: % is set by controls: 0 for no effect and ±100 for the full control effect; nearly all actives have a fitted effect of over 50% in size; luciferase read-out
NS1 inh = blocks influenza NS1 protein function | S. cerevisiae slowed by influenza A NS1, growth recovery by OD600 | Potency, µM (top dose mostly 46.1 µM), for the others: at the top dose activity, positive = more growth | 0.4% of 270,000 active | AID 2326; note: actives are rising curves; nearly all actives have a fitted effect of over 50% in size
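Read-out: OD600 growth recovery of NS1-expressing budding yeast. Cells grown overnight at 30C in -URA glucose medium, washed, resuspended and diluted 1:100 in 2% galactose assay medium, pH 6.0. Same strain lacking NS1 served as positive control.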
Marburg entry inh = inhibitors of Marburg virus binding or cell entry. Potency, µM (series often up to 37.8 µM), for the others: at the top dose activity change, negative = inhibition, actives largely listed as inhibitors. Marburg virus pseudotyped entry inhibition, cell reporter; control for the full effect not named in the record; about a third of the inactives were read at about 46 µM. 1.8% of 300,000 active. AID 540276; active = well fitted inhibition curve with a large enough effect; inconclusive = small, poorly fitted or top-dose-only effect, or effect the other way; inactive = flat fitted curve, though single readings scatter; tested in HEK293 cells; about a fifth of its hits are not listed in these tables; note: % is set by controls: 0 for no effect and ±100 for the full control effect; luciferase read-out
SARS PLpro yeast = SARS-CoV PLP inhibition in yeast. Potency, µM (titrated, usually from 32.9 µM), for inactives: top-dose activity, positive = growth rescue. AID 485353. 0.19% of 330,000 active. S. cerevisiae expressing SARS-CoV PLpro, growth rescue; control for the full effect not named in the record; note: 0% is about no effect; nearly all actives have a fitted effect of over 55% in size; growth read by luminescence after 48 h
Cruzain inh Det = cruzain (T. cruzi) inhibition with detergent. P25779. purified cruzain, Z-FR-AMC fluorescence, 0.01% Triton. Potency, µM, inactives show max response, negative = inhibition, hits mostly inhibitors. 0.43% of 200,000 active. AID 1478; active = well fitted curve in the direction sought with a large enough effect; inconclusive = small, poorly fitted or top-dose-only effect, or another doubt; inactive = no such curve, though single readings can be large; an effect the other way counts as inactive or inconclusive;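 note: plate controls were neutral wells for no effect and buffer without enzyme for full effect; nearly all actives have a fitted effect of over 40% in size; top concentration of the series not given in the record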
Target sequence (P25779 123-467 limits assumed): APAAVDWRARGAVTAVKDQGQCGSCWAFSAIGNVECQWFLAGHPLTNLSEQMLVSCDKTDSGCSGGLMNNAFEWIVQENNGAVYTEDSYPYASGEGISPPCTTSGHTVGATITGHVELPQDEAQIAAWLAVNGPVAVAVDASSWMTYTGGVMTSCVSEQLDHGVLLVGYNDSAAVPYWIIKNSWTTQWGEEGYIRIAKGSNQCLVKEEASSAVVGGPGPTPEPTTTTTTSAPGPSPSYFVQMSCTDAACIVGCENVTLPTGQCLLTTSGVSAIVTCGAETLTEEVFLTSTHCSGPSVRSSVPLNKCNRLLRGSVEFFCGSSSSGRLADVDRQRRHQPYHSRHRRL
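Sodium acetate buffer (100 mM, pH 5.5) containing 5 mM DTT and 0.01% Triton X-100 hosted 1.5 nM cruzain and test compound for 15 min at room temperature. Cleavage of 2 uM Z-FR-AMC was then tracked by fluorescence.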
Cruzain inh noDet = inhibitors of Trypanosoma cruzi cruzain without detergent; P25779; purified cruzain, Z-FR-AMC fluorescence, no detergent; Potency, µM, for the others: max response, negative = inhibition, most hits filed as inhibitors; 2.3% of 200,000 active; active = well fitted curve in the direction sought with a large enough effect; inconclusive = small, poorly fitted or top-dose-only effect, or another doubt; inactive = no such curve, though single readings can be large; an effect the other way counts as inactive or inconclusive;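 note: plate controls were enzyme without inhibitor for no effect and buffer without enzyme for full effect; nearly all actives have a fitted effect of over 40% in size; top concentration of the series not given in the record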
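Detergent-free condition (0.00005% Triton X-100) in acetate buffer pH 5.5 with DTT. 1.5 nM enzyme and compound were pre-mixed 15 min, then 2 uM Z-FR-AMC substrate added; reaction progress from fluorescence change between first and third reads (60 s).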
StopGo reporter = FMDV 2A StopGo reporter, luciferase signal; human cells with a luciferase reporter of 2A StopGo recoding; control for the full effect not named in the record; Potency, µM (highest dose often 57.9 µM), inactives show at the top dose signal change, negative = less light; 1.2% of 410,000 active; active = well fitted falling curve with a large enough effect; inconclusive = small, poorly fitted or top-dose-only effect; inactive = no such curve, though single readings can be large or run the other way; tested in HEK293T cells; note: % is set by controls: 0 for no effect and ±100 for the full control effect; nearly all actives have a fitted effect of over 45% in size; luciferase light after 4 h
The depositor's hits bear a star; u = inconclusive; x = not tested or not shown; [ ] = remark or other dose. Unless noted, calls come from the whole dose curve; as a rule, active means well fitted rising curve with a large enough effect; inconclusive means small, poorly fitted or top-dose-only effect; inactive means no such curve, though single readings can be large or run the other way. Potency is the fitted concentration of half-maximal effect.

SMILES	RE007 growth inh	Lassa entry inh	NS1 inh	Marburg entry inh	SARS PLpro yeast	Cruzain inh Det	Cruzain inh noDet	StopGo reporter
O=C(COC(=O)c1ccc(O)cc1)NCc1ccc2c(c1)OCO2	4%	u	x	19%[46.1 µM]	1%	x	x	4%
O=C(O)CCCn1cc(NC(=O)COc2ccc(F)cc2F)cn1	-8%	1%	-14%	14%	0%	x	x	4%
COc1ccc(C(=O)c2sc3nc(-c4ccc(F)cc4)ccc3c2N)cc1	x	-15%[46.1 µM]	x	1%[46.1 µM]	x	-4.6%	5%	-8%
O=C(CN1C(=O)C2CC=CCC2C1=O)Nc1ccc(S(=O)(=O)Nc2ncccn2)cc1 (configuration not stated)	-1%	x	0%	x	1%	x	x	-20%
Cc1cccc(N2CCN(S(=O)(=O)c3ccc4[nH]c(=O)c(=O)[nH]c4c3)CC2C)c1 (configuration not stated)	x	x	6%	x	-3%	-0.1%	5%	x
Cc1nc(C)n(CC(=O)c2ccc(Cl)cc2Cl)n1	-1%	1%	4%	u	0%	x	x	-3%
N/C(=N\OC(=O)c1cc(-c2ccccc2)nc2ccccc12)c1ccccn1	12%	x	-5%	x	0%	x	x	-25%
COC(=O)C(O)(c1ccc(NC(=O)NC2CCCCC2)cc1)C(F)(F)F (configuration not stated)	-5%	u	5%	u	-10%	-3.1%	-4%	25%
CCCc1nnc(SCC(=O)Nc2ccc3c(c2)OCCO3)n1CCOC	12%	-3%	-52%	23%[46.1 µM]	-1%	x	x	3%
CCOC(=O)N1CCN(c2nnc(-c3ccc(C)cc3)c3ccccc23)CC1	0%	u	-45%	u	0%	x	x	u
CCCc1[nH]n(-c2ccc(F)cc2)c(=O)c1C=Nc1ccc(C)cc1	14%	14%	5%	1%	29%	-8.2%	4%	7%
Cc1ccc(OCC(O)CN2CCN(CC(O)COC(C)C)CC2)c(C(C)(C)C)c1 (configuration not stated)	-10%	-18%	-1%	u	2%	3.5%	1%	-24%
CC(=O)N1CCCc2cc(S(=O)(=O)N3CCCC(C(=O)Nc4ccc(C)cc4C)C3)ccc21 (configuration not stated)	-1%	u	13%	x	-2%	1.1%	5%	u
Cc1ccc(C(=O)N/C(=C\c2ccc(-c3ccc(Br)cc3)o2)C(=O)NC2CCS(=O)(=O)C2)cc1 (configuration not stated)	15%	u	u	9%	-10%	-1.5%	u	-18%
O=C(c1cc(Cl)ccc1OCc1ccccc1)N1CCOCC1	61%	-10%[46.1 µM]	4%	25%[46.1 µM]	-6%	x	x	20%
CCN(Cc1ccccc1)C(=O)COc1cc(=O)n(CC)c2ccccc12	-3%	0%	2%	u	-2%	-7.9%	11%	-9%
O=C(CCC1CCCCC1)NCc1cccs1	-3%	0%	-14%	u	-15%	-0.2%	3%	64%[activator]
CCC1=Nc2cc(C(=O)NCc3ccco3)ccc2Sc2ccc(Cl)cc21	9%	u	16%	u	-14%	-16%	-15%	-14%
NC(=O)c1cc2ccc(O)cc2oc1=NCc1ccccc1	-24%	u	-51%	-2%	-35%	-8.6%	15%	3%
O=C(O)c1cc(/C=C/c2ccc(N3CCOCC3)cc2)nc2ccccc12	16µM*	u	11%	u	-9%	x	x	10µM*
COCCNc1ncnc2c1cnn2-c1ccc(Cl)cc1	11%	21%	x	u	0%	x	x	13%
NC(N)=Nc1nc2ccc(Br)cc2c(=O)[nH]1	-12%	-3%	x	-4%[46.1 µM]	3%	x	x	1%
OCCN(Cc1ccccc1)Cc1ncccc1O	7%	u	x	-6%[46.1 µM]	x	x	x	12%
COc1ccc(CCNC(=O)c2cc3ccccn3n2)c(OC)c1OC	-8%	x	-72%	x	-6%	3.2%	-11%	-21%
OC1(c2cccs2)CN(c2ccc(Br)cc2)C2=[N+]1CCCS2 (configuration not stated)	-1%	x	3%	x	1%	x	x	-17%
CC12CCC(C(=O)NCCCn3ccnc3)(OC1=O)C2(C)C (configuration not stated)	-13%	0%	3%	u	2%	4.9%	0%	-27%
COc1ccc(C)cc1S(=O)(=O)N1CCC(C(=O)NCCC2=CCCCC2)CC1	1%	-4%	4%	-15%	16%	-1.2%	u	-7%
CCC(=O)N1CCc2cc(Br)cc(S(=O)(=O)CCC(=O)NCCc3ccc(OC)c(OC)c3)c21	x	9%[46.1 µM]	x	-1%[46.1 µM]	x	0.6%	21%	0%
COC(=O)C1CCN(S(C)(=O)=O)CC1	-11%	7%	2%	2%	1%	1.8%	4%	-16%
O=C(CN1c2ccccc2S(=O)(=O)c2ccccc21)Nc1ccccc1Cl	x	u	x	x	x	-6.9%	u	-10%
CCc1ccc(S(=O)(=O)Nc2ccc3c(c2)sc(=O)n3C)cc1	x	2%[46.1 µM]	x	x	x	-9.5%	1%	34%[activator]
O=C(Cc1ccccc1)Nn1c(O)c(/C=C2\C=Nc3ccccc32)sc1=S	7%	u	4%	u	12%	-3.5%	u	-7%
Nc1nc(-c2ccccn2)nc(N)c1Cc1ccc(Cl)cc1Cl	u	u	x	u	22%	x	x	6%
O=C(c1ccc(Br)o1)N1CCN(c2ccc3nnc(-c4ccc(F)cc4)n3n2)CC1	11%	x	13%	0%	4%	-7.0%	u	-17%
CC(=O)Oc1ccc2c3c(c(=O)oc2c1)CCCC3	0%	x	-22%	x	-3%	x	x	-2%
COc1ccc(NC(=O)c2cc(S(=O)(=O)N3CCOCC3)ccc2C)cc1S(=O)(=O)N1CCOCC1	-14%	0%	x	-1%	u	x	x	-22%
CSCCC(NS(=O)(=O)c1ccc2ccccc2c1)C(=O)O (configuration not stated)	0%	8%	7%	17%	5%	4.2%	-3%	18%
CC(=O)NS(=O)(=O)c1ccc(NC(=O)/C=C/c2ccco2)cc1	25%	8%	x	1%[46.1 µM]	0%	x	x	-8%
C=CCNC(=O)N1CCC(CO)(Cc2ccc(Cl)cc2)CC1	-19%	x	5%	x	-1%	x	x	-11%
O=C(Cc1ccc(Br)cc1)Nc1cccc(Cl)c1	-15%	-15%[46.1 µM]	x	7%[46.1 µM]	-1%	x	x	-5%
CCC(C)(C)n1nnnc1C(C(C)C)N(CCN1CCOCC1)Cc1cc2cccc(C)c2[nH]c1=O (configuration not stated)	-13%	26%	-7%	u	6%	-0.6%	-3%	0%
Cc1nc(-c2noc(-c3ccccc3Cl)n2)c(C(F)(F)F)o1	-9%	x	-3%	x	-1%	x	x	68%[activator]
COc1cc(C(=O)Nc2sc3c(c2C(=O)NCc2ccco2)CCCC3)cc(OC)c1OC	5%	4%	2%	2%[46.1 µM]	12%	-13%	u	0%
COc1cc(C(=O)Nn2c(CC(C)C)nc3ccccc3c2=O)cc(OC)c1OC	-14%	18%	18%	-6%	2%	x	x	-22%
Cc1ccc(S(=O)(=O)c2nc(-c3cccc(C)c3)oc2N2CCCCC2)cc1	x	-17%[46.1 µM]	x	x	x	-3.3%	4%	31%[activator]
CC1CCCCN1C(=O)CN1C(=O)CN(C)C(=O)c2ccccc21 (configuration not stated)	1%	-5%	2%	14%	9%	0.7%	1%	-3%
CC1=C(C(=O)Nc2ccc(Br)cc2)C(c2ccco2)NC(=O)N1 (configuration not stated)	4%	3%	4%	-33%	-2%	2.7%	1%	x
COc1ccc2c(CC(=O)NCCN3C(=O)S/C(=C\c4cccnc4)C3=O)coc2c1	-23%	u	6%	10%	3%	x	x	0%

Whole records, looked up by structure. Order of screens: RE007 growth inh, Lassa entry inh, NS1 inh, Marburg entry inh, SARS PLpro yeast, Cruzain inh Det, Cruzain inh noDet, StopGo reporter
Shown for Cc1nc(-c2noc(-c3ccccc3Cl)n2)c(C(F)(F)F)o1 : -9%, x, -3%, x, -1%, x, x, 68%[activator]
Shown for CCC(C)(C)n1nnnc1C(C(C)C)N(CCN1CCOCC1)Cc1cc2cccc(C)c2[nH]c1=O (configuration not stated) : -13%, 26%, -7%, u, 6%, -0.6%, -3%, 0%

The listing picks up; the five compounds before the break are reprinted first.
SMILES	RE007 growth inh	Lassa entry inh	NS1 inh	Marburg entry inh	SARS PLpro yeast	Cruzain inh Det	Cruzain inh noDet	StopGo reporter
COc1cc(C(=O)Nn2c(CC(C)C)nc3ccccc3c2=O)cc(OC)c1OC	-14%	18%	18%	-6%	2%	x	x	-22%
Cc1ccc(S(=O)(=O)c2nc(-c3cccc(C)c3)oc2N2CCCCC2)cc1	x	-17%[46.1 µM]	x	x	x	-3.3%	4%	31%[activator]
CC1CCCCN1C(=O)CN1C(=O)CN(C)C(=O)c2ccccc21 (configuration not stated)	1%	-5%	2%	14%	9%	0.7%	1%	-3%
CC1=C(C(=O)Nc2ccc(Br)cc2)C(c2ccco2)NC(=O)N1 (configuration not stated)	4%	3%	4%	-33%	-2%	2.7%	1%	x
COc1ccc2c(CC(=O)NCCN3C(=O)S/C(=C\c4cccnc4)C3=O)coc2c1	-23%	u	6%	10%	3%	x	x	0%
Cc1cc(C)c(OCCOCCN2CCNCC2)c(C)c1	14%	8%	1%	2%[46.1 µM]	0%	5.3%	3%	-23%
CCn1c(SCC(=O)NC2CCCC2)nnc1C(C)C	1%	3%[46.1 µM]	7%	6%[46.1 µM]	-7%	x	x	19%
CCN1C(=O)N(CC)C(=O)C2(Cc3ccccc3N3CCN(c4ccccc4)CC32)C1=O (configuration not stated)	0%	x	13%	x	-1%	x	x	46%[activator]
O=C1OC(=O)C2C1[C@@H]1CC[C@H]2O1 (some centres not stated)	0%	u	u	u	7%	2.0%	-4%	-16%
Cc1cc(CNC(=O)C2CCC(=O)N(CCc3ccc(Cl)cc3)C2)no1 (configuration not stated)	-3%	-14%	-5%	u	-1%	x	x	0%
COc1ccc(N2CC(NC(=O)CCCc3ccccc3)CC2=O)cc1 (configuration not stated)	x	0%[46.1 µM]	x	x	x	-0.9%	1%	-15%
COc1cc(NC(=O)COC(=O)CCc2nc3ccccc3c(=O)[nH]2)cc(OC)c1	-20%	26%	x	-10%	1%	x	x	-6%
